MT1-MMP act inh – inhibitors of human MT1-MMP activation. P50281. HT1080 RFP-PRO-GFP cells, GFP/RFP ratio fluorescence, overnight; percent of plate control window, DMSO zero. GFP/RFP ratio change, % at 20 µM. AID 651647. 360,000 tested, 0.061% active;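 active = GFP/RFP ratio change of at least 30% with cell ATP level not reduced by more than half and red fluorescence within 50% of control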; also: strong numbers were not always called active
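Assay system – RFP-PRO-GFP reporter HT1080 cells · Compound dosing – single dose of 20 µM compound, 1% DMSO final · Incubation – overnight compound exposure at 37 °C · Measure – GFP/RFP fluorescence ratio · Benchmarks – DMSO wells and RFP-L50D-GFP cells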
Env fusion inh – blocks HIV Env-driven cell-cell fusion. inhibition, % at 12.3 µM. HeLa-JRFL Env/CEM21 cell fusion, luciferase. AID 651610. 360,000 tested, 1.1% active;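 active = mean replicate inhibition score of at least 50 and every replicate individually at or above 50; inconclusive = only one of the two criteria met; inactive = mean below 50 and not all replicates reaching 50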;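 also: 0% = plate neutral controls and 100% = maraviroc near 300 nM; one replicate is shown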
eIF4H FP inh – inhibitors of RNA binding by human eIF4H; eIF4H fluorescence polarization binding assay; inhibition, % at 35 µM; AID 2012; 290,000 tested, 0.94% active; Q15056;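 active = 50% or more with normal probe brightness, or confirmed in later tests; inconclusive = above 50% with abnormal brightness, or retests that disagree; inactive = below 50% or failed in later tests; about a fifth of its hits are not listed in these tables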;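 also: calls also rest on retests at 20 µM and on dose response follow-up; 0% = protein and probe with vehicle and 100% = probe without protein; strong numbers were not always called active; many hits fall short of the cut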
Rce1 inh – blocks yeast Ras-converting enzyme; yeast membranes, quenched prenylated peptide cleavage fluorescence; calls only; AID 2563; 290,000 tested, 0.27% active;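 active = fall in fluorescence gain of 50% or more versus controls, with final raw signal at or below 3038400; inconclusive = same 50% fall but final raw signal above 3038400; inactive = fall in fluorescence gain under 50%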;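 also: plate controls were neutral control wells for no effect and wells lacking membranes for full effect; tested at 10 µM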
Target sequence (Q03530 whole entry, looked up): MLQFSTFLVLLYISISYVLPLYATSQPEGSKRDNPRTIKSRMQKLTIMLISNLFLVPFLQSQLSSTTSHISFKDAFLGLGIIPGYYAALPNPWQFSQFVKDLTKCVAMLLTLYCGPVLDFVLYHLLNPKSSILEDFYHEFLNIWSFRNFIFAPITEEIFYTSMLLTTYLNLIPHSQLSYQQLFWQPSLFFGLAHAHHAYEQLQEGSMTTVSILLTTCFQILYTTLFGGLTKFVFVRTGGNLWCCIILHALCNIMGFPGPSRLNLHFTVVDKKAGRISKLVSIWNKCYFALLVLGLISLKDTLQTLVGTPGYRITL
PABP polyA inh – PABP-poly(A) binding inhibition; P11940; PABP-poly(A) RNA binding, fluorescence polarization; inhibition, % at 35 µM; 290,000 tested, 1% active; AID 2014;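 active = 50% or more with normal probe brightness, or confirmed in later tests; inconclusive = above 50% with abnormal brightness, or retests that disagree; inactive = below 50% or failed in later tests; about a fifth of its hits are not listed in these tables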;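 also: calls also rest on retests at 20 µM and on dose response follow-up; controls were probe without protein and protein plus probe with vehicle; some compounds called inactive have numbers as strong as hits; many hits fall short of the cut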
CSC inhib – blocks cancer stem cells; cancer stem cell-like cells viability, luminescence; inhibition, % at 7.5 µM; 300,000 tested, 1.1% active; AID 2717;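 active = mean at 75% or more and at least half the replicates too; inconclusive = mean and replicates disagree; tested in HMLE shEcad cells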;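 also: 0% = median of negative and 100% = median of positive control wells; the first replicate is given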
UUG fidelity – modulators of start codon recognition fidelity in yeast. S. cerevisiae UUG-firefly luciferase reporter, luminescence/redox ratio. activity score, % at 18.7 µM. 350,000 tested, 0.13% active. AID 602363;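 active = replicate mean at a twofold rise or more, about +100% in these data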;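 also: firefly luciferase made from a UUG start codon reports start codon fidelity; reporter light over untreated wells divided by growth signal over untreated wells; some hits fall short of that in this replicate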
eIF4H FP inh retest – second read-out of eIF4H FP inh, no call of its own (marks repeat the call); inhibition, %; compound at 20 µM; confirmation average;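 mean of two retest wells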
PABP polyA inh retest – recorded beside PABP polyA inh, whose call it bears; inhibition, %; compound at 20 µM; confirmation repeats;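 mean of two retest wells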
MT1-MMP act inh RFP – further read-out of MT1-MMP act inh, marked with its call; RFP signal change, %; measured here: RFP expression control read;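 0 = vehicle wells; hits needed this value within 50% of zero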
* marks the source's active call; other numbers are inactive results; i = inactive; ? = inconclusive; . = not tested or not shown. This is a subset; rates above refer to the full screens.

Preview (2 entries):
SMILES | MT1-MMP act inh | MT1-MMP act inh RFP | Env fusion inh | eIF4H FP inh | Rce1 inh | PABP polyA inh | CSC inhib | UUG fidelity | others
CNC(=O)C(=O)Nc1cc2c3c(c1)CCC(=O)N3CCC2 | -1 | 3 | -12 | -4 | i | -7 | -11 | -13
CCN(CC)CCCNc1nnc(C)c(=O)[nH]1 | -6 | 0 | . | 1 | i | -7 | 5 | -14

The list itself, repeating the preview:
SMILES | MT1-MMP act inh | MT1-MMP act inh RFP | Env fusion inh | eIF4H FP inh | Rce1 inh | PABP polyA inh | CSC inhib | UUG fidelity | others
CNC(=O)C(=O)Nc1cc2c3c(c1)CCC(=O)N3CCC2 | -1 | 3 | -12 | -4 | i | -7 | -11 | -13
CCN(CC)CCCNc1nnc(C)c(=O)[nH]1 | -6 | 0 | . | 1 | i | -7 | 5 | -14
CC1=NN(c2ccccc2)C(=O)/C1=C\c1cn(-c2ccccc2)nc1C | 5 | 3 | -4 | -19 | i | -10 | -6 | .
O=C(NCCCN1CCCC1=O)c1cc(COc2ccc(F)cc2F)on1 | -3 | -2 | -6 | -21 | i | -14 | -21 | -10
CCc1nnc(NC(=O)[C@@H]2CCCN2S(=O)(=O)c2ccc3c(c2)OCCO3)s1 | 4 | 5 | . | 1 | i | 1 | 2 | .
CC(=O)c1ccc(N2CCN(c3ncc(C(F)(F)F)cc3Cl)CC2)cc1 | 1 | -12 | . | -19 | i | -13 | 25 | -5
COc1ccc(S(=O)(=O)NCCCCNS(=O)(=O)c2ccc(OC)cc2)cc1 | 1 | -2 | 8 | -2 | i | 0 | -6 | -1
CCCCOc1ccc(C(=O)Nc2ccncc2)cc1 | -6 | -28 | . | -15 | i | -13 | 28 | .
CC(OC(=O)CC1CCCCC1)C(=O)Nc1cccc(C#N)c1 (stereo not drawn) | 3 | -4 | -1 | . | i | . | -3 | -6
CCOc1cc(/C=N/NC(=O)C2CCCC2)ccc1O | 0 | 4 | -8 | -10 | i | 2 | -6 | -25
COc1ccc(CCN(C(=O)/C=C/C(=O)O)C2CC(=O)N(c3ccccc3)C2=O)cc1 (stereo not drawn) | 1 | 2 | -2 | -12 | i | -6 | -6 | .
CCc1nnc(NC(=O)CSc2nnc(-c3ccc(NS(=O)(=O)c4ccccc4)cc3)o2)s1 | 5 | 8 | . | 1 | i | 31 | . | -21
COc1cccc(C(NC(=O)C2CCN(CCCOc3ccccc3)CC2)c2ccccn2)c1 (stereo not drawn) | 2 | -1 | -18 | . | . | . | . | -16
Cc1nnc(NC(=O)CSCc2ccccc2)s1 | 2 | 3 | -19 | 0 | i | 5 | 16 | -22
CC(Oc1ccc(Br)cc1Cl)C(=O)Nc1ccncc1 (stereo not drawn) | -4 | -27 | 6 | -11 | i | 3 | . | 0
CCN(CC)c1ccc2c(c1)CCCN2 | . | . | . | 91 | i | -6 | 12 | . | eIF4H FP inh retest=3;PABP polyA inh retest=3
O=c1c2ccccc2[nH]c2ccc(F)cc12 | -2 | -10 | -19 | -5 | i | 3 | . | .
CC(C)CC(=O)c1c[nH]c(C(=O)NCC2CCCO2)c1 (stereo not drawn) | 6 | 4 | . | 1 | i | 3 | 12 | -5
O=S(=O)(CC(O)COc1ccc(Br)cc1)c1ccccc1 (stereo not drawn) | -1 | -1 | 0 | 9 | i | 12 | -1 | .
O=C(NCc1ccccc1)c1onc(CSc2ccc(F)cc2)c1C(=O)NCc1ccccc1 | -2 | -3 | -4 | . | i | . | -2 | -5
COc1ccc(S(=O)(=O)N(C)CC(=O)NCc2ccccc2)cc1OC | -2 | 1 | -3 | -3 | i | -3 | 1 | -16
Cc1ccccc1SCC(=O)NCCCn1ccnc1 | 1 | 5 | 7 | -1 | i | 3 | -8 | -6
CCSc1nnc(NC(=O)/C=C/c2ccc3c(c2)OCO3)s1 | . | . | . | -6 | i | 5 | 44 | .
CCOC(=O)N1CCN(C(=O)C2CCCN(S(C)(=O)=O)C2)CC1 (stereo not drawn) | 0 | 5 | . | 2 | i | -7 | -14 | -16
CCN(CC(=O)Nc1cc(Cl)ccc1C)C(=O)c1ccc2c(c1)NC(=O)C(C)S2 (stereo not drawn) | -1 | -8 | -2 | . | i | . | 0 | -4

(next part)
SMILES | MT1-MMP act inh | MT1-MMP act inh RFP | Env fusion inh | eIF4H FP inh | Rce1 inh | PABP polyA inh | CSC inhib | UUG fidelity | others
COc1ccccc1NS(=O)(=O)c1ccc(N2CCOCC2)c(NC(=O)c2ccco2)c1 | -4 | -12 | 21 | -1 | i | ? | -11 | .
O=C(CCc1nc(-c2ccccc2Cl)no1)Nc1cccnc1 | -6 | -6 | -4 | 4 | i | -6 | -5 | -15
CC(/C=C/c1ccccc1)=N\NC(N)=S | 8 | -3 | -367 | 0 | i | -3 | 3 | -26
O=C1NC(=O)/C(=C\c2ccc(Sc3ccc(Cl)cc3)o2)N1 | 5 | -6 | . | 37 | i | 2 | -3 | 1
Cc1ccc(NC(=O)C2(S(=O)(=O)c3ccc(Cl)cc3)CC2)cc1 | 1 | 3 | -4 | -3 | i | 1 | 1 | -20
Cc1csc2nc(COC(=O)c3ccc(Cl)c([N+](=O)[O-])c3)cc(=O)n12 | -8 | -1 | -4 | . | . | . | -16 | -33
COc1ccc(S(=O)(=O)N2CCCC(C(=O)NCC3CCCO3)C2)cc1OC (stereo not drawn) | 4 | 3 | -7 | -1 | i | -5 | -4 | -17
CN1C(=O)C(O)(CC(=O)c2ccc(F)cc2)c2cc(Br)ccc21 (stereo not drawn) | 2 | 11 | -9 | 4 | i | 14 | 22 | -13
Nc1c(Cl)ncnc1N/N=C/c1ccccn1 | . | . | . | ? | . | -6 | 102* | .
COCC(C)NC(=O)c1cccc([N+](=O)[O-])c1 (stereo not drawn) | 1 | 5 | 4 | 9 | i | 7 | 10 | .
COc1ccc(NC(=O)CC2C(=O)N(c3ccc(OC)cc3)C(=S)N2NC(=O)c2cccc(F)c2)cc1 (stereo not drawn) | 3 | -2 | -66 | 4 | i | 12 | -12 | .
COc1ccccc1-c1cc(C(=O)N/N=C\c2cn(C)nc2C)c2ccccc2n1 | -3 | 3 | -8 | -14 | i | 3 | -5 | .
Cc1n[nH]c(=S)c2nn(-c3ccccc3)c(C)c12 | . | . | . | -13 | i | 3 | . | .
C/C(=N\NC(=O)c1n[nH]c2c1CCC2)c1cccs1 | -2 | -2 | ? | -2 | i | 9 | 25 | -79
Cc1cccc(OCC(O)CNC(=O)c2ccccc2C(=O)O)c1 (stereo not drawn) | -3 | -8 | . | . | i | . | -14 | -5
COc1ccc(Cl)cc1NC(=O)CSc1nnc(-c2ccco2)o1 | -3 | 3 | -2 | 4 | i | 2 | -9 | -3
Cc1cc(C)cc(Nc2cc(C)nc3nc(C)nn23)c1 | 1 | 6 | -13 | -7 | i | -4 | -5 | -22
COc1ccc(OC)c(/C=N/N(C)c2ccccc2)c1 | 5 | 4 | . | -1 | i | -2 | -3 | -4
CCOC(=O)N1CCN(C(=O)Cc2ccc(-n3c(=S)[nH]c4ccccc4c3=O)cc2)CC1 | 1 | -3 | . | -6 | i | -1 | -4 | -13
COc1cc(C(=O)NCC(c2cccs2)N2CCOCC2)cc(OC)c1OC (stereo not drawn) | 1 | 3 | -3 | . | i | . | 3 | -4
CN(C)/C=C(\C#N)C(=O)Nc1ccccc1 | 2 | 2 | 2 | -7 | i | 2 | -10 | .
O=C(O)C=C(Br)Br | 0 | 5 | . | 2 | i | 8 | 3 | -2
Cc1cccc(NC(=O)C2CCN(C(=O)[C@@H]3Cc4ccccc4CN3)CC2)c1 | 0 | 5 | -10 | -6 | i | 3 | -3 | -9
CCn1c2ccc(F)cc2c2nc3ccccc3nc21 | -1 | 1 | -3 | 6 | i | 1 | -12 | .
O=C(N/N=C/c1ccco1)Nc1ccccc1 | 8 | 4 | -24 | 12 | i | 63 | -1 | -16 | eIF4H FP inh retest=1;PABP polyA inh retest=-2

7 entries out of the list, sorted by molar mass, highest first:
SMILES | MT1-MMP act inh | MT1-MMP act inh RFP | Env fusion inh | eIF4H FP inh | Rce1 inh | PABP polyA inh | CSC inhib | UUG fidelity | others
COc1ccc(CCN(C(=O)/C=C/C(=O)O)C2CC(=O)N(c3ccccc3)C2=O)cc1 (stereo not drawn) | 1 | 2 | -2 | -12 | i | -6 | -6 | .
COc1ccc(S(=O)(=O)N2CCCC(C(=O)NCC3CCCO3)C2)cc1OC (stereo not drawn) | 4 | 3 | -7 | -1 | i | -5 | -4 | -17
COc1ccccc1-c1cc(C(=O)N/N=C\c2cn(C)nc2C)c2ccccc2n1 | -3 | 3 | -8 | -14 | i | 3 | -5 | .
O=S(=O)(CC(O)COc1ccc(Br)cc1)c1ccccc1 (stereo not drawn) | -1 | -1 | 0 | 9 | i | 12 | -1 | .
COc1ccc(OC)c(/C=N/N(C)c2ccccc2)c1 | 5 | 4 | . | -1 | i | -2 | -3 | -4
Nc1c(Cl)ncnc1N/N=C/c1ccccn1 | . | . | . | ? | . | -6 | 102* | .
O=c1c2ccccc2[nH]c2ccc(F)cc12 | -2 | -10 | -19 | -5 | i | 3 | . | .

Next compounds
SMILES | MT1-MMP act inh | MT1-MMP act inh RFP | Env fusion inh | eIF4H FP inh | Rce1 inh | PABP polyA inh | CSC inhib | UUG fidelity | others
O=C(CNC(=O)c1ccccc1F)NC1=NCCS1 | 0 | 7 | -1 | -5 | i | 2 | -9 | -7
O=C(Cn1ccn(-c2ccc(F)c(F)c2)c(=O)c1=O)NCCc1ccccc1 | -2 | 0 | 5 | . | i | . | 20 | -14
Cc1onc(-c2c(Cl)cccc2Cl)c1C(=O)N1CCN(c2ccccc2F)CC1 | -4 | -7 | 3 | -1 | i | 4 | -10 | 9
Cc1cc(C)c(S(=O)(=O)c2ccccc2C)c(OCCO)n1 | 0 | 3 | -27 | -5 | i | 3 | -8 | .
Cc1cccc(NC(=S)Nc2ccc(Cl)c(Cl)c2)c1 | 8 | -4 | -4 | -14 | i | -1 | -7 | -34
CSc1ccc(S(=O)(=O)Nc2c(C)cccc2C)cc1 | 6 | -2 | 8 | -1 | i | -3 | . | -31
Cc1cc(=O)[nH]c(Cc2ccc(OC(C)C)cc2)n1 | 5 | 2 | . | 2 | i | 2 | -12 | -12
CCCCc1nnc(NC(=O)CN2C(=O)c3ccccc3C2=O)s1 | -2 | 5 | 1 | -1 | i | -4 | 5 | -20
CC1CCCN(Cc2c(C(=O)N3CCc4ccccc4C3)nc3ccc(Cl)cn23)C1 (stereo not drawn) | -6 | -4 | 2 | 8 | i | 8 | 1 | -27
Cc1ccccc1NS(=O)(=O)c1ccc(C(=O)N2CCN(S(=O)(=O)c3ccccc3)CC2)cc1 | -4 | -9 | 14 | . | . | . | -3 | -5
Cc1cc(C)nc(N(C#N)CCOc2ccc(Cl)cc2)n1 | -6 | -8 | . | 3 | i | 6 | -9 | -3
CC(C)[C@H](NC(=O)[C@H](Cc1ccccc1)n1c(=O)[nH]c2ccccc2c1=O)C(=O)N1CCC[C@@H]1C(=O)O | 2 | 3 | . | -3 | i | 4 | -19 | -9
O=C(CSc1nc2[nH]ncc2c(=O)[nH]1)Nc1ccccc1C(F)(F)F | -1 | -3 | -1 | . | i | . | -7 | -32
